HCMV NEC inh: cytomegalovirus nuclear egress complex inhibition. actives 0.15% (n = 190,000). inhibition, % (no concentration beside the values). HTRF UL50-UL53 interaction, normalized percent inhibition. AID 1918969;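 active = both replicates at 50% or more, plus weaker picks with an unusually low signal ratio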;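 also: stock transfer was 100 nL into about 20 µL; 0% = negative control wells and 100% = wells with untagged competitor protein; inactives centre near -12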
Sa growth inh: blocks Staphylococcus aureus growth; AID 720641; relative growth, % (test concentration not listed); actives 0.53% (n = 170,000); S. aureus RN4220 growth, OD600, 20 h, 42 °C; hits give low values;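 active = growth at 42 °C up to 50% and 20 or more points under that at 30 °C, or under 10% at both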;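 also: 300 nL library stock went into each well; scaled to the means of positive and negative controls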
GIV-Gai inh: inhibitors of GIV GBA-motif binding to rat Galpha-i3. percent of control (FP), % (test concentration not listed). P08753. AID 1224905. actives 0.42% (n = 210,000). Galpha-i3/FITC-GIV peptide fluorescence polarization, 90 min; hits give low values; scaled: aluminum fluoride 0%, vehicle 100%;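 active = replicate mean at 85% of control or lower, very high polarization wells dropped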;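 also: wells of about 15 µL received 100 nL stock; the first replicate is given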
Target sequence (P08753 whole entry, looked up): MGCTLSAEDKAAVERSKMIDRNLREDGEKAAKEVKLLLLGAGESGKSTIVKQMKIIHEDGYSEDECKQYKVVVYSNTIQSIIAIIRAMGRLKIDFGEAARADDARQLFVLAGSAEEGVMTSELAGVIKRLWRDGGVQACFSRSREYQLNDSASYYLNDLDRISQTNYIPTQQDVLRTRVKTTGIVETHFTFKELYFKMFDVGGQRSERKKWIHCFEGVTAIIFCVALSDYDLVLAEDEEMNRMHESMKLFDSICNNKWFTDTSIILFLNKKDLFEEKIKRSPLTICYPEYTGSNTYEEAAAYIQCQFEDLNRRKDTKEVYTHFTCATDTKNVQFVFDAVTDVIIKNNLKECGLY
Sa growth inh second temp: also measured in Sa growth inh; calls as there; relative growth, %; measured here: growth at 30 °C;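 optical density after 20 h as mean of two plates; 100% = untreated growth and lower means inhibition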
* = called active by the depositor; . = no result given; & = joins results of further samples.

nr	compound	HCMV NEC inh	Sa growth inh	Sa growth inh second temp	GIV-Gai inh
1	O=C(CC1CC2CCC1C2)Nc1ccccc1I (stereo unspecified)	.	102.4	83.1	105.5
2	O=C(C1CCC(CNS(=O)(=O)c2cccs2)CC1)N1CCN(c2ccc(Cl)cc2)CC1 (stereo unspecified)	.	93.2	85.5	97.4
3	CCCc1nc2ccccc2n1CC(=O)C(C)(C)C	-29.8	99.0	87.2	.
4	CCC(=O)Nc1ccc(Nc2cc(N(C)C)nc(C)n2)cc1	-44.4	.	.	101.0
5	Cc1ccc(-n2cnc3cc(NC(=O)c4ccccc4)ccc32)cc1	.	98.1	93.0	101.3
6	Cc1ccc(S(=O)(=O)N(CC(=O)N2CCC(C(N)=O)CC2)c2ccccc2F)cc1	1.2	81.5	103.2	95.4
7	Cc1ccc2nsnc2c1NC(=O)c1ccccc1	-69.0	107.1	89.5	111.0
8	COc1cccc(C(=O)Nc2ccc3nc(SCC(=O)N(C)c4ccccc4)sc3c2)c1	-11.6	114.1	96.5	104.4
9	CC(=O)c1ccc(NC(=O)CC2Sc3ccccc3NC2=O)cc1 (stereo unspecified)	-20.0	92.8	87.0	103.1
10	COc1ccc(C2=Nc3ccccc3NC(=O)C2)cc1	-25.0	.	.	100.6
11	NC(=O)c1cccc(-c2nn[nH]n2)c1	13.4	88.5	103.5	.
12	Cc1nn(-c2ccccc2)c2c1C(C(=O)NC1CCCC1)N(c1ccc(Cl)cc1)C(=O)CS2 (stereo unspecified)	-28.7	.	.	101.6
13	O=C(Nc1ccccc1C(F)(F)F)c1ncoc1-c1ccco1	.	97.9	90.1	102.6
14	CN(C)S(=O)(=O)NCc1ccc2c(c1)OCO2	-5.4	90.0	83.7	101.8
15	COc1ccccc1CN1C(=O)c2c(-n3cccc3)c3cc(C)ccc3n2CC1(C)C(=O)NC1CCC(C)CC1 (stereo unspecified)	6.2	.	.	100.4

Other structures:
nr	compound	HCMV NEC inh	Sa growth inh	Sa growth inh second temp	GIV-Gai inh
16	COCCc1nn2c(=O)cc(COC(=O)c3ccco3)nc2s1	.	99.4	94.5	103.5
17	O=C1c2ccccc2C(=O)N1CN1CCOCC1	-43.1	91.8	74.6	106.1
18	CC(C)CCn1c(COc2ccc(Cl)cc2)nc2ccccc21	-17.5	.	.	101.1
19	O=C1c2ccccc2C(=O)N1CCC1=CCCCC1	-19.9	104.5	100.4	102.8
20	COc1ccc(Cl)cc1NC(=O)c1sc2nc(-c3ccc(F)cc3)cn2c1C	-19.7	.	.	114.9
21	O=C(NCCc1nc2ccccc2[nH]1)C1CCCCC1	.	91.9	83.5	105.3
22	O=C(CSc1oc(-c2ccccc2)nc1S(=O)(=O)c1ccc(Br)cc1)NC1CCCCC1	5.4	90.0	93.9	104.7
23	CCOC(=O)C1=C(N)n2c(s/c(=C/c3ccco3)c2=O)=C(C(=O)OCC)C1c1ccco1 (stereo unspecified)	-74.9	82.4	86.0	.
24	CCOc1ccc(NC(=O)c2ccccc2OCc2nc(-c3ccccc3)no2)cc1	-28.0	.	.	104.4
25	CC(C)NC(=O)CN1C(=O)CCc2cc(S(=O)(=O)N3CCCCC3C)ccc21 (stereo unspecified)	-15.0	.	.	101.9
26	Cc1cc(-c2ccc(C)c(S(=O)(=O)N3CCC(C)CC3)c2)on1	.	93.9	96.1	113.7
27	CC(C)(C)NCc1ccc(-c2ccccc2)o1	-28.9&-23.7	111.3	87.1	105.4&101.6
28	CCCC(CCC)C(=O)O	-40.3&-42.3&4.5&4.0&2.1&2.1&-39.1&-2.3	85.2&91.1	88.3&83.4	100.7&100.6
29	CN(C)c1cccc2c(/C=N/O)ccc(N(C)C)c12	.	111.1	89.9	98.9
30	CCOc1ccc(CNC(=O)c2oc3c(c2C)-c2nn(Cc4cccc(Cl)c4)cc2CC3)cc1	-16.8	111.0	89.1	98.5

Next part.
nr	compound	HCMV NEC inh	Sa growth inh	Sa growth inh second temp	GIV-Gai inh
31	NC(=S)SC(CC(=O)c1ccccc1)c1ccsc1 (stereo unspecified)	-3.5	73.8	67.3	101.8
32	N=c1sc(SCc2ccccc2)nn1CC(=O)c1ccc2c(c1)OCCO2	6.6	98.9	98.6	.
33	Cc1cc(NC(=O)COC(=O)Cn2[nH]c(=O)c3ccccc3c2=O)no1	-22.7	84.2	92.0	.
34	CC1CCN(Cn2c(=O)n(CN3CCC(C)CC3)c3ccccc32)CC1	-46.6	79.9	94.8	.
35	CCc1nnc(NC(=O)CC(=O)Nc2ccccc2C(=O)O)s1	-4.1	123.8	87.9	.
36	Cc1ccc2nc(NC(=O)c3ccc4c(c3)SC3=NS(=O)(=O)CCN34)sc2c1	-4.3	84.5	47.8	.
37	C=CCn1c(C(C)Oc2cccc(C)c2)nc2ccccc21 (stereo unspecified)	.	62.4	48.8	103.2
38	COC(=O)c1ccccc1NC(=O)Cn1nc2c(Sc3ccccc3)nc3ccccc3n2c1=O	-23.4	.	.	107.2
39	CC(=O)N1CCc2c(sc3c2c(=O)n(CCc2ccccc2)c(=O)n3Cc2cccc(C)c2)C1	-14.9	103.1	84.4	95.9
40	CCOC(=O)c1c2c(n(-c3ccccc3)c1N)OC(=N)C(C#N)C2c1ccc(Br)cc1 (stereo unspecified)	-27.7	97.2	87.1	.
41	CC(CN1C(=O)c2ccc(-c3ccccc3)n2CC1(C)C(=O)NC1CCCC1)c1ccccc1 (stereo unspecified)	-10.6	.	.	104.3
42	Fc1ccccc1N1CCN(Cc2nnc(-c3ccc4c(c3)OCO4)o2)CC1	-3.8	109.6	93.8	104.6
43	Cc1cc(/C=C(/C#N)C(=O)NC2CCCCC2)c(C)n1-c1ccc(I)cc1	-5.1	114.9	101.3	96.2
44	Cc1cccc(Nc2ncnc(N)n2)c1C	-2.5	110.4	95.0	101.6
45	COc1ccc(C2C(C(=O)Nc3ccc(Br)cn3)=C(C)NC3=C2C(=O)CCC3)c(OC)c1 (stereo unspecified)	-11.1	.	.	110.2

The results go on:
nr	compound	HCMV NEC inh	Sa growth inh	Sa growth inh second temp	GIV-Gai inh
46	O=C(c1cc2ncc(Br)cn2n1)N1CCCCC1	-18.4	112.7	72.4	99.0
47	CCOC(=O)c1c(C2CC2)csc1NC(=O)COn1nnc2ccccc21	5.2	66.8	75.8	.
48	O=C(Cn1nc2c(Sc3ccccc3)nc3ccccc3n2c1=O)Nc1ccc(Cl)cc1	-15.4	.	.	103.2
49	Cn1cnnc1SCc1cc(=O)c(OCC(=O)N2CCc3ccccc32)co1	-30.1	92.0	80.5	109.1
50	CC(C)Cn1c(=O)c2sccc2n2c(CCC(=O)NC3CCCC3)nnc12	-10.4	.	.	99.9
51	N#Cc1c(CCl)cc(=O)n2c1sc1ccccc12	13.3	105.5	99.7	.
52	Cc1cc(S(=O)(=O)Nc2cccc(-c3ccc(N4CCOCC4)nn3)c2)c(C)cc1Cl	.	100.3	90.9	103.9
53	COc1ccc(-c2nc3c(s2)CN(C(=O)c2ccc(Br)cc2)CC3)cc1	-3.5	.	.	97.5
54	O=C(CCN1C(=O)C2C3C=CC(C3)C2C1=O)N1CCN(c2ccccc2)CC1 (stereo unspecified)	-28.6	84.4	86.8	100.2
55	CC(C)c1ccc(C2NC(=S)NC3=C2C(=O)CCC3)cc1 (stereo unspecified)	-21.9	104.0	82.6	97.1
56	Cc1cc(C)c(C)c(Cn2c(-c3ccco3)nc3ccccc32)c1C	5.2	80.5	81.0	113.8
57	CCc1cccc(CC)c1NS(=O)(=O)c1ccc2c(c1)CCN2C(=O)C1CC1	-18.6	102.7	87.6	105.5
58	Clc1cccc(OCCN2CCCC2)c1	6.2	100.4	95.3	.
59	CCOC(=O)C1=C(c2ccccc2)NC(SCC)=C(C#N)C1c1cccnc1 (stereo unspecified)	-3.8	.	.	99.2
60	O=C1Nc2ccccc2S/C1=C/Nc1cccc(C(F)(F)F)c1	-7.7	.	.	102.8

The listing continues.
nr	compound	HCMV NEC inh	Sa growth inh	Sa growth inh second temp	GIV-Gai inh
61	CCCc1ccc(NC(=S)OC)cc1	-12.3	75.3	70.7	110.5
62	COC(=O)c1cc2c(cc1NC(=O)c1cnn(-c3ccccc3)c1-n1cccc1)OCO2	-1.9	91.6	94.1	96.4
63	CCOC(=O)N1CCC(NC(=O)c2cc3ccc4cccnc4c3[nH]2)CC1	-22.4	88.3	68.2	99.8
64	CCCNC(=O)Cn1nc(C)c2c(C)n(-c3ccc(C)cc3)nc2c1=O	-2.6	101.4	94.0	109.3
65	N#Cc1cccc(NC(=O)c2ccc3c(c2)N(Cc2cccc(Cl)c2)C(=O)c2ccccc2S3(=O)=O)c1	-33.7	97.9	85.1	95.6
66	O=C(N=C1SCC(=O)N1c1ccccc1)c1ccco1	0.3	108.8	72.7	102.2
67	C=CCn1c(SCC(=O)Nc2cc(C)on2)nnc1C1COc2ccccc2O1 (stereo unspecified)	-8.1	100.2	96.4	.
68	Cc1ccc(-c2nnc3n(CC(C)C)c(=O)c4ccccc4n23)s1	-26.0	76.8	83.3	103.6
69	O=C(CSC1CCS(=O)(=O)C1)NCC(=O)c1ccccc1 (stereo unspecified)	-34.6	94.4	78.4	99.1
70	COc1cccc(C(=O)Nc2sc3c(c2C(N)=O)CCC3)c1	-14.6	110.2	95.1	.
71	Cc1ccc(C)c2c1sc(=NC(=O)c1ccc(C#N)cc1)n2C	-39.0	97.8	77.7	100.2
72	CCSc1ncc2c(=O)n(C(CC)C(=O)N3CCC(C)CC3)cnc2n1 (stereo unspecified)	12.5	.	.	105.1
73	COC(=O)Cc1[nH]n(-c2ccc(F)cc2)c(=O)c1C(C)=NC1CC(C)(C)NC(C)(C)C1	-4.6	99.6	78.0	101.5
74	CCOC(=O)Cc1csc(NC(=O)CSc2nnc(-c3ccc(F)cc3)o2)n1	8.2	86.7	105.4	96.6
75	CCCNC(=O)N1CCCc2ccccc21	7.0	102.8	98.9	99.4

Three compounds from above, arranged by the value under GIV-Gai inh, highest first.
No. | SMILES | Sa growth inh | Sa growth inh second temp | GIV-Gai inh
38 | COC(=O)c1ccccc1NC(=O)Cn1nc2c(Sc3ccccc3)nc3ccccc3n2c1=O | . | . | 107.2
54 | O=C(CCN1C(=O)C2C3C=CC(C3)C2C1=O)N1CCN(c2ccccc2)CC1 (stereo unspecified) | 84.4 | 86.8 | 100.2
62 | COC(=O)c1cc2c(cc1NC(=O)c1cnn(-c3ccccc3)c1-n1cccc1)OCO2 | 91.6 | 94.1 | 96.4

The main list resumes, starting two compounds before the break.
nr	compound	HCMV NEC inh	Sa growth inh	Sa growth inh second temp	GIV-Gai inh
74	CCOC(=O)Cc1csc(NC(=O)CSc2nnc(-c3ccc(F)cc3)o2)n1	8.2	86.7	105.4	96.6
75	CCCNC(=O)N1CCCc2ccccc21	7.0	102.8	98.9	99.4
76	Cc1ccc(-n2ncc3c(NCc4ccccc4)ncnc32)cc1C	.	133.1	92.6	105.0
77	COc1ccc(O)c(-c2cnc(=S)[nH]c2-c2cc(OC)ccc2OC)c1	28.6	66.3	78.7	.
78	CCc1ccccc1NC(=O)CSc1nnc(-c2ccc(OC)cc2)s1	.	100.6	84.1	97.9
79	COc1cccc(Cn2cc(C(=O)c3ccc(Cl)cc3)c(=O)c3ccccc32)c1	-43.4	100.7	87.3	101.0
80	Cc1ccc2nc(NC(=O)COc3ccc(F)cc3)sc2c1	.	96.2	88.9	102.7
81	COC(=O)c1ccc(S(=O)(=O)N(C)C2CCCCC2)o1	1.9	121.6	91.6	101.3
82	CN(C)c1oc(-c2ccc(S(=O)(=O)N3CCc4ccccc4C3)cc2)nc1C#N	6.7	.	.	99.8
83	NC(=O)CC12CC3CC(C1)CC(CC(N)=O)(C3)C2	-1.7	96.6	96.5	103.2
84	O=c1[nH]oc(O)c1-c1ccccc1	-9.1	105.6	92.2	104.3
85	CN1C(=O)C2(C(C#N)=C(N)N(c3ccccc3)C3=C2C(=O)CC(C)(C)C3)c2ccccc21 (stereo unspecified)	15.5	101.5	100.6	102.3
86	COc1ccc(OC)c(NC(=O)COc2coc(CN3CCc4ccccc43)cc2=O)c1	-10.3	94.2	78.6	104.9
87	Clc1nc(Cl)nc(N2CCCCC2)n1	-20.2	104.3	92.8	101.3
88	COc1ccc(C(C)NC(=O)c2ccccc2)cc1 (stereo unspecified)	-11.9	91.3	103.9	98.0
89	COc1cccc(Cn2c(C)c(C3=CCN(S(=O)(=O)c4cccc5cccnc45)CC3)c3ccccc32)c1	-29.5	.	.	118.0
90	Cc1cc(-n2c(C)cc(C(=O)COC(=O)C34CC5CC(CC(O)(C5)C3)C4)c2C)no1	-5.3	112.9	90.2	.
91	Cc1cccc(NS(=O)(=O)c2cc3c(cc2C)n(C)c(=O)c(=O)n3C)c1	-23.5	101.8	73.0	103.6

Assay outcomes from PubChem BioAssay.
